Compound activity: PubChem, SRMLSC
H5N1 antiviral: MDCK cell protection from H5N1 avian flu; cytopathic effect, luminescence, 72 h; hits give high values; no value below 0 was filed and about half of the inactive calls have no number; reference of the scale not given here; hit rate 0.07% among 96,000; inhibition, % at 50 µM; in the data active means inhibition above about 25%
An asterisk follows results filed as active; i = inactive. This is a subset; the hit share may differ from the screen's.

SMILES | H5N1 antiviral
COc1cccc(OC)c1OCc1cc(C2C3CCCC=C3C(C#N)=C(N)C2(C#N)C#N)c(C)cc1C (stereo unspecified) | 8.2
O=C1C2C3C=CC([C@@H]2C(=O)N1Cc1cccnc1)C31CC1 (stereo partly specified) | i
COc1ccc(O)c(C(=O)c2cnc3onc(C)c3c2)c1 | 0.9
Cc1ccccc1OCC(=O)Nc1ccc2c(c1)COC2=O | i
CC(C)n1cc(C(=O)N(CC(=O)NC2CCCC2)Cc2ccccc2)cn1 | i
CCN(C(=O)CSc1nnnn1-c1cc(C)ccc1OC)C1CCS(=O)(=O)C1 (stereo unspecified) | i
CCOC(=O)c1ccc(N2C(=O)CC(N(Cc3ccc4c(c3)OCO4)C(=O)Nc3ccccc3)C2=O)cc1 (stereo unspecified) | 0.9
CN(C)c1oc(-c2ccccc2Cl)nc1P(=O)(c1ccccc1)c1ccccc1 | 1.0
CC(CCc1ccco1)NC(=O)c1cc2c(-c3ccccc3F)nn(C)c2s1 (stereo unspecified) | 2.2
N#Cc1c(-c2ccccc2)c(-c2ccccc2)n(Cc2ccco2)c1NC(=O)c1cccs1 | 0.9
N#Cc1cc(-c2ccc(Cl)cc2)cn(Cc2c(Cl)cccc2Cl)c1=O | 1.4
O=C(C1=C(O)C(=O)N(CCc2ccccc2)C1c1cccnc1)c1ccco1 (stereo unspecified) | 0.2
O=C1CSC(c2ccccn2)N1c1ccccc1 (stereo unspecified) | 0.1
CCCN(CCC)S(=O)(=O)c1ccc(NC(=O)c2cc(C(=O)OC)cc([N+](=O)[O-])c2)cc1 | i
Cc1cccc(NC(=O)CSc2nc3c(c(=O)[nH]2)CCCC3)c1C | 1.8
O=c1oc2ccccc2cc1-c1csc(NN=C2CCCCC2)n1 | i
O=C(CSc1nc(-c2ccccc2)cc(=O)[nH]1)NCc1ccc2c(c1)OCO2 | 2.8
O=C(c1cc(-c2cccnc2)nc2ccc(Cl)cc12)N1CCC2(CC1)OCCO2 | 0.4
COc1ccc(N2CC(C(=O)NCCc3ccc(OC)c(OC)c3)CC2=O)cc1 (stereo unspecified) | 1.3
C=CCSc1nc2c(c(=O)[nH]1)C(C(C)C)C(C#N)=C(N)O2 (stereo unspecified) | 0.1
CCCc1nc(NCc2ccco2)c(C#N)c2c1COC(C)(C)C2 | 8.5
CCCNS(=O)(=O)c1ccc(OCC(=O)NCc2ccco2)cc1 | 0.3
COc1ccc(-c2ccc(-c3noc(C(C)C)n3)c(OC)n2)cc1 | i
O=C(NCCCCNC(=O)c1cccnc1)c1cccnc1 | i
CCN=c1scc(-c2ccc3c(c2)NC(=O)CO3)n1N=C1CCCC1 | i
SMILES | H5N1 antiviral
O=C(NCCCN1CCOCC1)c1ccc(Cl)s1 | i
CCc1ccc(N(CC(=O)NC2CCCCC2)S(=O)(=O)c2c(C)noc2C)cc1 | i
CSc1nnc2c(n1)OC(C)=Nc1ccccc1-2 | 11
COc1ccc(OC)c(NC(=O)CSc2nnc(CNC(=O)COc3ccc(Cl)cc3)o2)c1 | 0.4
O=C1NC(c2ccccc2)(C(F)(F)F)C(=O)N1Cc1cccnc1 (stereo unspecified) | i
COC(=O)c1ccc(NC(=O)CNC(=O)C2CCCCC2)cc1 | i
CN(Cc1ccccc1)Cc1c(F)cccc1F | 0.6
CS(=O)(=O)N(CC(=O)N1CCOCC1)c1ccc2c3c(cccc13)CC2 | 0.5
COc1ccc(OC)c2c1sc(=NC(=O)C(C)(C)C)n2C | 1.4
O=C(CN1CCN(c2ccccc2)CC1)Nc1ccc(-n2cnnn2)cc1 | 0.6
COC(=O)c1sc(NC(C)=O)c(C(=O)OC)c1C | i
O=C(CN1CCCCC1)Nc1cccc(Cl)c1Cl | i
CC(=O)Nc1cc(C(=O)N2CCC3(CC2)OCCO3)ccc1S(=O)(=O)c1ccc(Cl)cc1 | 0.6
CCOC(=O)C1CCCN(C(=O)Cn2nc(CC)n3c(cc4sccc43)c2=O)C1 (stereo unspecified) | 1.2
Cn1c(SCC(=O)C(C)(C)C)nnc1-c1ccncc1 | i
CN(C(=O)CSc1nnc(Nc2ccccc2)s1)c1c(N)n(Cc2ccccc2)c(=O)[nH]c1=O | 2.5
COC(=O)c1ccccc1NC(=O)C1CC(=O)N(c2ccc(C)c(C)c2)C1 (stereo unspecified) | i
N#Cc1c(NC(=O)CN2CCCCC2)sc2c1CCC2 | 2.0
O=C(CSc1nnc(COc2ccccc2)n1Cc1ccco1)Nc1ccc2c(c1)OCCO2 | i
O=C1c2ccccc2NC(c2ccccc2)N1/N=C/c1ccccc1 (stereo unspecified) | i
COc1ccc(-c2cc(-c3cccs3)c(C#N)c(SCC(=O)NCc3ccccc3)n2)cc1 | i
COc1cc(OC)c(S(=O)(=O)NCc2ccco2)cc1S(=O)(=O)NCc1ccco1 | i
O=c1[nH]cnc2scc(-c3ccccc3)c12 | i
Cc1ccccc1OCCn1cc(/C(N)=N/O)c2ccccc21 | i
CCCCOC(=O)c1ccc(N2C(=O)CC(N3CCN(C/C=C/c4ccccc4)CC3)C2=O)cc1 (stereo unspecified) | i
SMILES | H5N1 antiviral
COc1nc(NCc2cccnc2)nc(OC)n1 | 1.4
N#Cc1c(N)sc(=S)c2c1CCN(Cc1ccccc1)C2 | 1.4
CCOC(=O)C1=C(C)NC(SCC(N)=O)=C(C#N)C1c1cccs1 (stereo unspecified) | i
Cc1cc(C)nc(N2C(=O)CC(C(=O)O)NC2=NCCc2c[nH]c3ccccc23)n1 (stereo unspecified) | 0.8
COc1nc(Oc2ccc(=O)n(C)n2)nc(N(C)C)n1 | 0.1
O=C(NNS(=O)(=O)c1ccc2ccccc2c1)C1CCN(Cc2ccccc2)CC1 | 0.8
CC(C)(C)C1CCc2onc(C(=O)NCc3ccc(F)cc3)c2C1 (stereo unspecified) | i
Cc1ccc(S(=O)(=O)c2c(C)cc(C)nc2Oc2cccc(C)c2C)cc1 | i
O=C(Nc1ccc2c(c1)OCO2)NC1CCN(Cc2ccccc2)CC1 | i
Brc1ccc(-c2nnc(-c3ccco3)o2)cc1 | 0.9
CCC(CC)C(=O)NCCc1ccc(F)cc1 | 0.8
COc1ccccc1NC(=O)CSC1CC(=O)N(c2ccc3c(c2)OCO3)C1=O (stereo unspecified) | 0.1
CCC(C)(C)n1nnnc1C(C(C)C)N1CCN(C)CC1 (stereo unspecified) | i
Cc1ccc(S(=O)(=O)c2ccc(Cl)cc2)cc1S(=O)(=O)N1CCN(C)CC1 | 1.6
CC1Cn2c(nc3sc4c(c3c2=O)CCC4)N1CCO (stereo unspecified) | 1.0
CCn1c(SCc2ccc(C(=O)OC)o2)nc2sc3c(c2c1=O)CCCC3 | 0.1
O=S(=O)(c1cccs1)N1CCc2ccccc2C1 | i
O=S(=O)(c1ccc(F)cc1)n1ccc(-c2cccc(OCc3ccc(Cl)cc3Cl)c2)n1 | i
CC(C)C(=O)N1CCN(c2ccccc2NC(=O)c2cccc(Cl)c2)CC1 | 0.2
COc1ccc(C(CC(=O)O)NC(=O)Cc2ccccc2)cc1 (stereo unspecified) | i
Cn1c(SCC(=O)NC2CC2)nnc1C(F)(F)F | i
Fc1ccc(/C=C2\CCCC3=C2Nc2ncnn2C3c2ccc(F)cc2)cc1 (stereo unspecified) | i
Cc1nc2sccn2c1-c1nc(-c2cc3ccccc3o2)cs1 | i
Cc1cccc2cc(C#N)c(N3CCN(C)CC3)nc12 | i
Cc1cc(C)n(-c2nc(N(C)C)nc(N3CCOCC3)n2)n1 | 0.7
SMILES | H5N1 antiviral
COc1ccc(S(=O)(=O)Nc2ccc(F)cc2)cc1N(C)S(=O)(=O)c1ccc(Cl)cc1 | i
O=C(c1ccc(Br)o1)N(c1ccc(Br)cc1)C1C=CS(=O)(=O)C1 (stereo unspecified) | 0.2
CC(=O)N1CCN(C(=O)Nc2cccc(C(F)(F)F)c2)CC1 | i
Cn1c(N2CCN(c3ccccn3)CC2)nc2c1c(=O)n(Cc1ccc(Cl)cc1)c(=O)n2C | 0.8
C/C(=N\Nc1ccc(Cl)cc1)c1ccccn1 | i
Cc1cc(OCC(=O)C(C)(C)C)c2c(C)c(C)c(=O)oc2c1 | i
CCOc1ccc(-c2[nH]ncc2Oc2ccccc2OC)c(O)c1 | i
CCC(=NCc1cc(OC)cc(OC)c1)c1c(O)n(C)c(=O)n(C)c1=O | 2.7
O=C(OCCN1C(=O)c2ccccc2C1=O)c1ccc(S(=O)(=O)N2CCCCCC2)cc1 | i
O=C(c1ccco1)N1CCN(c2nc3ccccc3c(=O)n2-c2ccccc2)CC1 | 2.4
CCN(CC)C1CCCCC1NS(=O)(=O)c1ccc(Cl)cc1 (stereo unspecified) | 0.5
Cc1cccc(Cn2c(SCC(=O)Nc3ccccc3)nc3c2c(=O)[nH]c(=O)n3C)c1 | i
CCOc1cc(C=O)c(Br)cc1OC1CCCC1 | i
CCN1CCCC1CNCc1ccccc1OCc1ccc(F)cc1 (stereo unspecified) | i
CCC(c1nnnn1CC1CCCO1)N(CCN1CCOCC1)Cc1cc2cc(C)ccc2[nH]c1=O (stereo unspecified) | 1.2
N#Cc1cc2c(nc1SCC(=O)NCc1ccc3c(c1)OCO3)CCCCC2 | 0.6
Cc1ccc(O)c(NC(=O)CCC2CCCCC2)c1 | i
O=c1c(C(c2ccc(O)cc2)c2c(O)nc3n(c2=O)CCCS3)c(O)nc2n1CCCS2 | i
CC1CCc2cccc3c2N1c1cc(C#N)c(C#N)cc1O3 (stereo unspecified) | 2.6
Cc1[nH]c2ccc(S(N)(=O)=O)cc2c1C | i
CNS(=O)(=O)c1cnccc1N1CCN(c2cccc(Cl)c2)CC1 | 1.8
Cc1cccc(-n2c(-c3csc(C)c3)n[nH]c2=S)c1 | 0.0
O=c1oc2ccccc2cc1-c1nc2c(s1)CCCC2 | 1.0
O=C(Nc1ccc(NC(=O)c2cccs2)cc1)c1ccc(Br)o1 | i
O=C(Nc1nc(-c2cccs2)cs1)c1cccc(S(=O)(=O)N2CCCCC2)c1 | i
SMILES | H5N1 antiviral
O=C(ONC1=NCCCCC1)c1ccc(Cl)cc1 | i
Cc1ccc(-c2n[nH]c(=O)c3ccccc23)cc1S(=O)(=O)NCCO | 1.2
O=C(Cc1cccs1)Nc1nnc(-c2ccncc2)s1 | 0.4
Cc1nc2ccccc2cc1OCc1ccc(Cl)cc1 | i
COc1ccc2[nH]cc(S(=O)(=O)c3ccc(F)cc3)c(=O)c2c1 | i
O=C(CCC(=O)NC1CCN(Cc2ccccc2)CC1)NCc1ccco1 | i
CC(=O)c1cccc(S(=O)(=O)N2CCCC(c3nc(-c4ccc(C)o4)no3)C2)c1 (stereo unspecified) | 1.4
Cc1ccc2[nH]c3c(=O)n(CCc4cnc[nH]4)cnc3c2c1 | i
CCN(CC)c1nc(N2CCOCC2)c(C#N)c2c1CN(C)CC2 | 1.9
CCOC(=O)N1CCN(CC(O)COCCC23CC4CC(CC(C4)C2)C3)CC1 (stereo unspecified) | i
Cc1cccc(NC(=O)c2cccs2)n1 | i
Cc1nc2cc(N3CCN(C)CC3)c(NC(=O)Cc3ccccc3)cc2c(=O)n1Cc1ccccc1 | i
COc1ccc(/C(O)=C2\C(=O)C(=O)N(Cc3ccco3)C2c2ccc(OC)cc2OC)cc1 (stereo unspecified) | 0.6
Cc1ccc(S(=O)(=O)c2cccc(S(=O)(=O)N3CCOCC3)c2)cc1S(=O)(=O)N1CCOCC1 | i
Cc1cc(C)nc(Nc2ccc(C(=O)O)cc2)n1 | i
CC(C)Cn1c(SCC(=O)NC(=O)NC2CCCC2)nc2ccccc21 | i
c1csc(CNCCN2CCOCC2)c1 | i
Cc1sc(-c2ccccn2)nc1OC(=O)c1ccc(Cl)cc1 | i
Cc1ccccc1C(=O)NCc1nnc(SCC(=O)N2c3ccccc3Sc3ccccc32)n1C | i
CCn1c(CCC(=O)Nc2nc3c(s2)CCCC3)nc2cc(S(=O)(=O)N(C)C)ccc21 | 8.5
CC(=O)N1C(=O)C2(C(C#N)=C(N)Oc3n[nH]c(-c4ccccn4)c32)c2ccccc21 (stereo unspecified) | 1.3
CC(C)CNC(=O)c1ccccc1NC(=O)Nc1ccccc1 | 1.2
Cc1ncsc1C(=O)Nc1nc2c(s1)CC(C)CC2 (stereo unspecified) | 0.1
C=CCn1c(SCC(=O)Nc2cc(C)ccc2OC)nnc1-c1ccco1 | i
CCOc1ccc(-n2ccnc2SCC(=O)NCc2ccc3c(c2)OCO3)cc1 | i
CCCN1C(=O)C(Cc2nc3ccccc3c(=O)n2C)c2ccccc21 (stereo unspecified) | 1.2
Nc1nc2c(s1)CC(c1ccccc1)CC2 (stereo unspecified) | 1.0
O=C(NCc1ccc(F)cc1)c1cc(-c2cccs2)on1 | i
COc1cc(CN2CCN(c3cccc(C)c3C)CC2)cc(Br)c1O | i
